# Assay outcomes from PubChem BioAssay.
# UUG fidelity: modulators of start codon recognition fidelity in yeast; activity score, % at 18.7 µM; hit rate 0.13% among 350,000; S. cerevisiae UUG-firefly luciferase reporter, luminescence/redox ratio;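 active = replicate mean at a twofold rise or more, about +100% in these data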;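 also: firefly luciferase made from a UUG start codon reports start codon fidelity; reporter light over untreated wells divided by growth signal over untreated wells; some hits fall short of that in this replicate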
# PABP polyA inh: blocks human PABP binding to poly(A) RNA; hit rate 1% among 290,000; fluorescence polarization; AID 2014; inhibition, % at 35 µM; P11940;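 active = 50% or more with normal probe brightness, or confirmed in later tests; about a fifth of its hits are not listed in these tables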;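 also: calls also rest on retests at 20 µM and on dose response follow-up; controls were probe without protein and protein plus probe with vehicle; some compounds called inactive have numbers as strong as hits; many hits fall short of the cut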
# CSC inhib: blocks cancer stem cells; hit rate 1.1% among 300,000; AID 2717; cancer stem cell-like cells viability, luminescence; inhibition, % at 7.5 µM;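 active = mean at 75% or more and at least half the replicates too; tested in HMLE shEcad cells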;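 also: 0% = median of negative and 100% = median of positive control wells; the first replicate is given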
# MT1-MMP act inh: blocks activation of human MT1-MMP; AID 651647; P50281; HT1080 RFP-PRO-GFP cells, GFP/RFP ratio fluorescence, overnight; percent of plate control window, DMSO zero; hit rate 0.061% among 360,000; GFP/RFP ratio change, % at 20 µM;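 active = GFP/RFP ratio change of at least 30% with cell ATP level not reduced by more than half and red fluorescence within 50% of control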; also: strong numbers were not always called active
#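 Test system: HT1080 cells expressing an RFP-PRO-GFP fluorescent reporter construct / Compound dosing: single-point 20 µM compound, 1% DMSO / Schedule: cells overnight before dosing, compound overnight, 37 °C, 5% CO2 / Evaluation: GFP/RFP fluorescence ratio / Control set: DMSO and RFP-L50D-GFP cell wells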
# eIF4H FP inh: inhibitors of RNA binding by human eIF4H. Q15056. eIF4H fluorescence polarization binding assay. inhibition, % at 35 µM. hit rate 0.94% among 290,000;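 active = 50% or more with normal probe brightness, or confirmed in later tests; about a fifth of its hits are not listed in these tables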;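 also: calls also rest on retests at 20 µM and on dose response follow-up; 0% = protein and probe with vehicle and 100% = probe without protein; strong numbers were not always called active; many hits fall short of the cut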
# Rce1 inh: yeast Ras-converting enzyme inhibition; Q03530; yeast membranes, quenched prenylated peptide cleavage fluorescence; calls only; hit rate 0.27% among 290,000; AID 2563;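 active = fall in fluorescence gain of 50% or more versus controls, with final raw signal at or below 3038400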;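 also: plate controls were neutral control wells for no effect and wells lacking membranes for full effect; tested at 10 µM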
# Target sequence (Q03530 whole entry, looked up): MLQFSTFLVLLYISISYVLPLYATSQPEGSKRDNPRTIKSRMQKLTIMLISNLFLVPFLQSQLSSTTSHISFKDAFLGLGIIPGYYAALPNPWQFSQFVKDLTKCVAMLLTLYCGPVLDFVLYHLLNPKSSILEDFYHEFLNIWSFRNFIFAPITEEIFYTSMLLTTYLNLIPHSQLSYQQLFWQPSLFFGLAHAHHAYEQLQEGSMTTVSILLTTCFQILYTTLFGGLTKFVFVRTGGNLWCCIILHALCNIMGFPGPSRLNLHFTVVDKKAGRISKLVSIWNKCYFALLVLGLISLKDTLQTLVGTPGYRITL
# Env fusion inh: HIV envelope-mediated fusion inhibition; HeLa-JRFL Env/CEM21 cell fusion, luciferase; inhibition, % at 12.3 µM; hit rate 1.1% among 360,000; AID 651610;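 active = mean replicate inhibition score of at least 50 and every replicate individually at or above 50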;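 also: 0% = plate neutral controls and 100% = maraviroc near 300 nM; one replicate is shown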
# MT1-MMP act inh RFP: further read-out of MT1-MMP act inh, marked with its call; RFP signal change, %; measured here: RFP expression control read;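 0 = vehicle wells; hits needed this value within 50% of zero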
# Starred values were filed as active, the others as inactive; i = inactive; nt = no result given. A portion of the library (hit frequency here may not be typical).
SMILES,UUG fidelity,PABP polyA inh,CSC inhib,MT1-MMP act inh,MT1-MMP act inh RFP,eIF4H FP inh,Rce1 inh,Env fusion inh
O=C(O)CC1(CC(=O)Nc2ccc3ccccc3c2)CCCCC1,-12.2,-7.0,11.0,-2.8,2.8,5.9,i,-78.8
CC1(C)CC(=O)C(C=NCCN2CCN(C3CC(=O)N(c4ccc(Br)cc4)C3=O)CC2)=C(O)C1 (stereo not given),nt,-8.3,0.6,1.8,5.0,10.1,i,-22.5
CCCCN(C(=O)c1ccc(-n2nc(C)cc2C)cc1)c1c(N)n(CCC)c(=O)[nH]c1=O,-14.5,nt,nt,1.8,1.6,nt,nt,19.1
CCN(CCc1ccccc1)c1ccc2c(c1)C1CC2CCN1C(=O)OCc1ccccc1 (stereo not given),-7.2,nt,nt,-5.2,-8.2,nt,nt,12.6
O=C(COC(=O)CNS(=O)(=O)c1cc(C(F)(F)F)ccc1Cl)NC1CC1,-7.6,nt,-2.0,3.2,6.8,nt,nt,-6.3
O=C(Nc1ccccc1)/C(=C\c1ccccc1)NC(=O)c1ccco1,-13.4,7.3,-2.0,0.4,0.0,6.6,i,6.1
N=C1/C(=C\c2ccc(OC(=O)c3ccc(F)cc3)cc2)C(=O)N=C2SC(N3CCOCC3)=NN12,-11.4,8.2,-8.4,-1.8,1.2,-0.6,i,0.8
O=C(c1ccc2c3n(nc2c1)-c1ccc(Cl)cc1CO3)N1CCOCC1,-18.7,18.0,20.0,2.3,1.0,3.4,i,-54.3
O=C(NC(=S)Nc1ccccc1)c1csnn1,-19.4,13.9,-17.6,1.2,-0.6,1.5,i,nt
COc1cccc(/C=N/NC(=O)c2ccccc2NC(=O)c2ccco2)c1OC,nt,9.6,1.5,3.3,-1.8,-6.6,i,6.2
N#C/C(C(N)=O)=C1/CCc2ccccc2N1,-6.4,1.8,4.1,19.5,-5.1,-14.4,i,-79.6
COc1ccc(NC(=O)Cc2c(F)cccc2Cl)cc1,-14.1,-0.7,0.5,2.6,3.1,-2.4,i,-17.6
CC(=O)c1sc(NC(=O)c2ccc(C(C)(C)C)cc2)nc1C,-34.6,-11.0,16.3,0.1,-2.4,-5.5,i,-106.5
Cc1cc(C(=O)N2CCC(Cc3ccccc3)CC2)no1,-5.9,4.7,45.6,-1.9,-1.2,1.3,i,7.9
O=C(COC(=O)c1ccc(Br)o1)Nc1cccc(S(=O)(=O)N2CCOCC2)c1,-10.9,nt,-13.2,0.1,0.0,nt,nt,6.5
CC1(C)Cc2ccccc2C(Nn2cnnc2)=N1,-6.9,13.6,-3.2,-0.4,2.6,31.4,i,nt
Cc1cc(OCC(=O)NCC(c2cccs2)N2CCOCC2)ccc1C(C)C (stereo not given),0.1,nt,-7.6,1.4,-10.6,nt,i,58.6*
CC(C)(C)NCC(O)COc1ccccc1C(=O)CCc1ccccc1 (stereo not given),2.2,9.9,-0.7,-0.6,5.2,-9.3,i,-9.5
Cc1ccc(/C=C(\C#N)c2nc3ccccc3[nH]2)s1,-16.1,-1.7,6.7,5.3,-1.1,-1.1,i,nt
O=C(COc1ccc(F)cc1Br)Nc1ccccc1N1CCCC1,-6.7,nt,nt,-2.2,-3.5,nt,nt,1.6
O=C(CSc1nc2[nH]ncc2c(=O)[nH]1)Nc1cccc(Cl)c1,nt,nt,-2.0,-2.1,2.1,nt,i,-25.8
COc1ccccc1NCN1C(=O)CCC1=O,3.1,-7.7,-1.1,-3.3,2.1,-11.3,i,1.0
COc1ccc(-c2noc(CN(C)S(=O)(=O)c3ccccc3)n2)cc1OC,-2.4,nt,-5.0,0.7,-2.2,nt,i,nt
O=C(O)c1cccc(CSc2nnc(COc3ccccc3)o2)c1,-16.1,1.0,-9.2,-5.9,0.9,-17.5,i,nt
O=C1NC(=S)NC1=Cc1ccco1,-18.4,nt,nt,-4.6,7.7,nt,nt,-22.3
CSc1ccc(-c2cccc([N+](=O)[O-])c2)nn1,nt,17.4,nt,-2.0,-3.8,2.4,i,-28.6
CCCCNC(=O)C1(C)CCN1C(=O)c1ccc2c(c1)CCO2 (stereo not given),-2.4,nt,nt,4.1,5.3,nt,nt,-1.3
CCOC(=O)c1c(C)[nH]c(C)c1C(=O)COC(=O)Cc1n[nH]c(=O)c2ccccc12,-12.3,nt,-16.3,1.3,3.2,nt,nt,15.7
O=C(OCc1ccc(Cl)cc1)c1ccccc1C(=O)c1ccccc1,3.6,-8.9,16.3,-0.9,-4.1,-1.9,i,33.8
O=C(Nc1nc2n(n1)C(c1ccc(Cl)cc1)CC(c1ccc(Cl)cc1)N2)c1ccco1 (stereo not given),nt,-3.0,-1.6,nt,nt,-5.6,i,nt
COC(=O)c1ccc(/C=N/NC(=O)CC(=O)NC(C)C)cc1,-1.9,3.7,-3.6,1.8,-0.8,5.0,i,-63.0
COc1ccccc1-c1ccc(=O)n(CC(=O)Nc2ccc(C(=O)N3CCCC3)cc2)n1,nt,2.5,-12.7,0.8,0.9,5.7,i,-8.5
COc1ccc(S(=O)(=O)N(C)C)cc1NC(=O)CCCSc1ccccc1,nt,-4.7,-12.3,0.5,-1.3,-0.8,i,-6.3
Cc1cc(=O)[nH]c(SCC(=O)Nc2cc(S(=O)(=O)N(C)C)ccc2Cl)n1,nt,3.3,-15.9,3.4,3.4,4.8,i,13.2

# Env fusion inh: what is marked active above
Molecule | UUG fidelity | MT1-MMP act inh | MT1-MMP act inh RFP | Rce1 inh | Env fusion inh
Cc1cc(OCC(=O)NCC(c2cccs2)N2CCOCC2)ccc1C(C)C (stereo not given) | 0.1 | 1.4 | -10.6 | i | 58.6*

# A draw from above in order of heavy-atom count, largest number first.
SMILES,UUG fidelity,PABP polyA inh,CSC inhib,MT1-MMP act inh,MT1-MMP act inh RFP,eIF4H FP inh,Rce1 inh,Env fusion inh
COc1ccccc1-c1ccc(=O)n(CC(=O)Nc2ccc(C(=O)N3CCCC3)cc2)n1,nt,2.5,-12.7,0.8,0.9,5.7,i,-8.5
O=C(Nc1nc2n(n1)C(c1ccc(Cl)cc1)CC(c1ccc(Cl)cc1)N2)c1ccco1 (stereo not given),nt,-3.0,-1.6,nt,nt,-5.6,i,nt
CCOC(=O)c1c(C)[nH]c(C)c1C(=O)COC(=O)Cc1n[nH]c(=O)c2ccccc12,-12.3,nt,-16.3,1.3,3.2,nt,nt,15.7
Cc1cc(OCC(=O)NCC(c2cccs2)N2CCOCC2)ccc1C(C)C (stereo not given),0.1,nt,-7.6,1.4,-10.6,nt,i,58.6*
COc1ccc(S(=O)(=O)N(C)C)cc1NC(=O)CCCSc1ccccc1,nt,-4.7,-12.3,0.5,-1.3,-0.8,i,-6.3
CC(C)(C)NCC(O)COc1ccccc1C(=O)CCc1ccccc1 (stereo not given),2.2,9.9,-0.7,-0.6,5.2,-9.3,i,-9.5
O=C(OCc1ccc(Cl)cc1)c1ccccc1C(=O)c1ccccc1,3.6,-8.9,16.3,-0.9,-4.1,-1.9,i,33.8
O=C(O)c1cccc(CSc2nnc(COc3ccccc3)o2)c1,-16.1,1.0,-9.2,-5.9,0.9,-17.5,i,nt
CCCCNC(=O)C1(C)CCN1C(=O)c1ccc2c(c1)CCO2 (stereo not given),-2.4,nt,nt,4.1,5.3,nt,nt,-1.3
COC(=O)c1ccc(/C=N/NC(=O)CC(=O)NC(C)C)cc1,-1.9,3.7,-3.6,1.8,-0.8,5.0,i,-63.0
Cc1ccc(/C=C(\C#N)c2nc3ccccc3[nH]2)s1,-16.1,-1.7,6.7,5.3,-1.1,-1.1,i,nt
CC1(C)Cc2ccccc2C(Nn2cnnc2)=N1,-6.9,13.6,-3.2,-0.4,2.6,31.4,i,nt
CSc1ccc(-c2cccc([N+](=O)[O-])c2)nn1,nt,17.4,nt,-2.0,-3.8,2.4,i,-28.6
O=C1NC(=S)NC1=Cc1ccco1,-18.4,nt,nt,-4.6,7.7,nt,nt,-22.3
